Bioassay records as filed in PubChem.
T cruzi inh – blocks replication of Trypanosoma cruzi. T. cruzi beta-gal in NIH3T3, luminescence, 90 h. inhibition, % (test concentration not listed). hit rate 1.4% among 300,000. AID 1885;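 active = mean inhibition across valid replicates above about 55%, limit read from the data; inconclusive = mean below that limit but half or more replicates reach it; inactive = mean below it, under half of replicates reach it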;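 also: signal also drops with host cell toxicity which is not excluded here; 0% = plate median of DMSO wells and 100% = zero luminescence signal; higher percent means less beta-gal luminescence so fewer parasites; stock transfer was 50 nL into about 50 µL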
UCH37 DUB inh – inhibitors of human deubiquitinating enzyme UCH37. Q9Y5K5. purified proteasome/UCH37, Ub-AMC cleavage fluorescence. inhibition, % (concentration not given with the values). hit rate 0.33% among 330,000. AID 588478;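 active = mean of two replicates above 20%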;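 also: 0% = compound-free wells with enzyme and 100% = wells lacking proteasome; stock transfer was 100 nL into about 20 µL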
Target sequence (Q9Y5K5 whole entry, looked up): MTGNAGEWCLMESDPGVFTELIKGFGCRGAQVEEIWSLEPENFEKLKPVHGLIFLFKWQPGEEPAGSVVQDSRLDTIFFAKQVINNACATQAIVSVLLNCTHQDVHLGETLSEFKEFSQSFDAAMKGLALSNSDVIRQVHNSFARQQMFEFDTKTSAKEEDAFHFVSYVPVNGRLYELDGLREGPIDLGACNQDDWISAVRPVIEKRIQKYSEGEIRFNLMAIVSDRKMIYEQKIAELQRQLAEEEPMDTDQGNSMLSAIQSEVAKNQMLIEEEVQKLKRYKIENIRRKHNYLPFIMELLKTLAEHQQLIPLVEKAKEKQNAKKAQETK
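Material: Human UCH37 enzyme supplied as purified proteasome complex | Schedule: 30 min compound-proteasome preincubation then 25 min substrate reaction, room temperature | Detection: AMC fluorescence from Ub-AMC cleavage, excitation 355 nm, emission 460 nm | Benchmarks: Wells without proteasome as full block, compound-free enzyme plus substrate as uninhibited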
Beta2AR agonist – human beta-2 adrenergic receptor agonism by FAP; hit rate 0.43% among 340,000; response, % (concentration not given with the values); P07550; Am2.2-beta2AR cells, FAP receptor internalization, flow cytometry; reference of the scale not given here; AID 504454;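 active = response above a set limit, near 3 SD of response in nonfluorescent compounds, cut at about 42% in these data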;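 also: stock transfer was 100 nL into about 11 µL; a reference agonist was the positive control; negative values mostly stem from fluorescent compounds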
Target sequence (P07550 whole entry, looked up): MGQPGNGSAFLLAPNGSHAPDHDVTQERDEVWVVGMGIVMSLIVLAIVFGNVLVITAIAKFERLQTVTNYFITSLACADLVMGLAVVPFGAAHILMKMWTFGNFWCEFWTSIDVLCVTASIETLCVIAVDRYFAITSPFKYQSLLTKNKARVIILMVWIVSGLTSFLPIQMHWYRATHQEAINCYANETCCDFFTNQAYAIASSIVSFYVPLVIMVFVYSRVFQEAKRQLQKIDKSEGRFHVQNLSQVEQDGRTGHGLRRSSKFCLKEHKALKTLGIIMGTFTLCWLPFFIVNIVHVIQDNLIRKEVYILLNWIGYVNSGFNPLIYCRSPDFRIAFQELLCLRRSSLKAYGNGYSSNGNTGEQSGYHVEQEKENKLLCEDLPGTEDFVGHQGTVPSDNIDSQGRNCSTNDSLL
Calb FLC – C. albicans growth modulation with fluconazole; AID 1979; hit rate 0.57% among 300,000; C. albicans CaCi-2 (fluconazole-resistant clinical isolate) + fluconazole, Alamar Blue growth, 48 h; growth inhibition, % (no concentration beside the values);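 active = most replicates above 75%; inconclusive = exactly half above 75%; inactive = most below 75%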;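 also: all wells also contain fluconazole at 8 µg/ml as a sub-toxic cotreatment; 0% = median of DMSO wells and 100% = median of geldanamycin control wells; wells of about 8 µL received 7.5 nL stock; the first replicate is given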
Beta apoptosis – beta cell apoptosis inhibition; INS-1E cytokine-induced death, ATP luminescence, 48 h; percent of positive-control rescue, neutral wells zero; protection from apoptosis, % (concentration not given with the values); hit rate 0.8% among 300,000; AID 435005;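 active = all replicates at 75% or more, or half of them and the mean; inconclusive = half reach 75% but not the mean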;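 also: 0% = cytokine-treated negative control wells and 100% = positive control rescue; higher means more ATP so stronger rescue from cytokine killing; wells of about 40 µL received 100 nL stock; the first replicate is given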
Bfl-1 A1 inh – inhibitors of the anti-apoptotic protein A1, read as caspase activation | MEF A1-2A-BIM cells, Caspase-Glo 3/7 luminescence, 3 h; percent of clofoctol response, vehicle zero | hit rate 0.066% among 330,000 | caspase activation, % (concentration not given with the values);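 active = over half of replicate activation scores above 10%, or exactly half above 10 with the replicate mean above 10; inconclusive = replicate mean below 10 yet half the replicates above 10; inactive = over half of replicates below 10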;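 also: wells of about 30 µL received 50 nL stock; many hits fall short of the cut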
RanGTP-Impb inh – disruptors of Ran-importin-beta complex formation – biochemical, FRET, CFP-Ran, YFP-importin-beta, homogeneous, primary screen; inhibition, % (test concentration not listed); hit rate 1.1% among 300,000; cell-free CFP-Ran/YFP-importin-beta FRET ratio;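 active = most replicates above 15%; inconclusive = exactly half above 15%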;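 also: 0% = DMSO wells and 100% = Ran loaded with GDP instead of GTP; wells of about 40 µL received 100 nL stock; the first replicate is given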
LANA-H2A inh – blocks KSHV LANA binding to histone H2A/H2B; inhibition, % (concentration not given with the values); Q9QR71; hit rate 0.6% among 320,000; cell-free LANA-H2A/H2B peptide, fluorescence polarization; in the data active = inhibition mostly above about 10%, no sharp cut-off; inactive = mostly below about 6.7%;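 also: stock transfer was 7.5 nL into about 10 µL; 0% = median of vehicle wells and 100% = median of positive control wells; one replicate is shown; the record names a cut of 25% in any replicate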
* hit, by the source's call; u = inconclusive; x = not tested or not shown; & = joins results of further samples.

SMILES	T cruzi inh	UCH37 DUB inh	Beta2AR agonist	Calb FLC	Beta apoptosis	Bfl-1 A1 inh	RanGTP-Impb inh	LANA-H2A inh
O=C(NCc1ccco1)C1CCCN1C(=O)Nc1ccccc1 (stereo not given)	0	-1.9	-7	-11	-8	-0.8	4.6	3.4
COc1ccccc1N1C(=O)c2ccccc2NC1C(OC)OC (stereo not given)	-3	-154	-2	-11	-1	0.7	8.8	-1.6
CCN(CC(=O)Nc1cccc(S(=O)(=O)N(C)c2ccccc2)c1)Cc1cccs1	x	0.9	2	x	6	0.5	x	4.6
C[C@H]1CN([C@@H](C)CO)C(=O)Cc2cc(NC(=O)C3CC3)ccc2O[C@H]1CN(C)Cc1ccc(Oc2ccccc2)cc1	x	1.6	3	x	-3	0.4	x	-4.3
COc1ccc(OC)c(/C=C2\N=C(c3ccccc3)OC2=O)c1	-18	-1.4	9	-5	-13	0.9	0.1	42*
O=C(NC(=S)Nc1ccc(NC(=O)c2cccs2)cc1)c1ccc([N+](=O)[O-])cc1	5	6.0	-12	-16	1	2.4	0.3	-2.8
Cc1noc(C)c1-c1ccc2ncnc(NCC3CCCCN3C)c2c1 (stereo not given)	x	8.0	4	x	3	0.5	x	1.5
O=C(OCC(=O)c1c[nH]c2ccccc12)c1cccc(S(=O)(=O)N2CCCCCC2)c1	2	2.6	4	-12	-10	0.6	-3.8	-2.0
Cc1cc(C)c2c(=O)n(CC(=O)Nc3ccc(Br)c(C)c3)sc2n1	40	6.6	11	-22	0	0.5	-2.6	0.2
COc1ccccc1CNC(=O)CCS(=O)(=O)c1cccs1	4	2.4	0	16	2	0.8	-0.8	-1.7
O=C(c1ccc(S(=O)(=O)N2CCOCC2)cc1)N1CCN=C1SCc1cccnc1	-2	2.7	3	-31	-6	0.2	-1.2	-0.8
CCNc1nc(NCC)nc(N/N=C/c2ccc(Br)cc2)n1	18	x	6	u	26	0.8	0.0	3.3
CCCCN(C)CCCNC(=O)/C=C1\Sc2ccccc2NC1=O	9	4.1	-3	-4	3	0.1	2.6	-1.2
O=C(O)C1CCN(C(=O)CCc2ccccc2)CC1	-4	3.9	7	-8	-3	0.9	0.4	-5.4
Cc1cc(N2CCC(C)CC2)nc(SCC(=O)c2ccccc2)n1	6	1.6	-1	2	7	1.1	-3.9	-0.7
O/C(=C\c1nc2ccccc2[nH]1)c1cccs1	4	x	8	7	-5	0.0	-1.7	2.9
CCn1c(SCC(=O)OCc2ccccc2)nc2c1c(=O)n(C)c(=O)n2C	1	1.3	0	23	-5	0.3	5.5	-1.9
CCn1ccnc1CN(C)Cc1cn[nH]c1-c1ccc(OC)c(F)c1	-7	-0.5	0	4	-4	0.3	-1.1	3.4
CCN(CC(=O)N1CCOCC1)S(=O)(=O)c1ccc(F)cc1	2	-0.1	1	-4	-5	0.1	1.3	1.7
O=C(NO)c1ccccc1O	-15	0.8	-1	x	0	1.4	-1.1	-8.6&4.8
COC(=O)c1c(NC(=O)CN2CCC3(O)CCCCC3C2c2ccc(F)cc2)sc(C)c1C (stereo not given)	27	3.7	6	4	-3	u	0.0	-1.1
CC(C)(C)C(=O)Nc1ccc(N=Nc2ccccc2)cc1	11	11	-1	-5	-17	-4.8	1.1	-3.4
O=C(c1ccncc1)N(c1ccc2oc3c(c2c1)CCCC3)S(=O)(=O)c1cccc([N+](=O)[O-])c1	11	3.9	-4	u	-2	0.4	3.4	-1.1
O=C(O)CCCN1C(=O)C2C3CCC(O3)C2C1=O (stereo not given)	-6	1.9	-1	-1	-9	0.4	2.3	0.3
CCOc1cccc2c1OC1(CCCCC1)N1N=C(c3cccnc3)CC21 (stereo not given)	8	2.5	-11	6	0	1.5	-1.9	-1.8
Following part
SMILES	T cruzi inh	UCH37 DUB inh	Beta2AR agonist	Calb FLC	Beta apoptosis	Bfl-1 A1 inh	RanGTP-Impb inh	LANA-H2A inh
O=C(NCCc1ccccc1)c1cccc2c1C(=O)c1ccc(N3CCOCC3)cc1S2(=O)=O	x	0.4	1	x	11	1.0	x	2.7
Cn1cc(CCC(=O)NC2CC2)c2ccccc21	1	-0.6	0	1	-9	0.3	-4.7	-4.8
COc1cc2ccccc2cc1C(=O)Nc1ccc(CN2CCOCC2)cc1	0	-0.7	-7	8	0	1.6	0.3	-0.8
Cc1nc(SCC(=O)NC(=O)NCCC(C)C)c2c(-c3cccs3)csc2n1	28	0.7	-4	-5	6	-0.5	2.0	2.3
O=C(/C=C\c1ccc2c(c1)OCO2)Nc1c2c(nn1-c1ccc(Cl)cc1)CSC2	16	-3.8	0	13	x	0.4	-2.8	0.5
COc1ccc([N+](=O)[O-])cc1N(CC(O)CN1CCCC1)S(=O)(=O)c1ccc(C)cc1 (stereo not given)	-1	5.8	-1	-26	-6	0.5	-1.1	-6.3
O=C(C[C@@H]1C/C=C/CC[C@@H](Cc2ccc(F)cc2)C(=O)O[C@@H](c2ccccc2)CNC1=O)NCCO	x	3.4	-8	x	-4	0.0	x	6.4
O=C(Nc1ccccc1-c1nnn(CC(=O)N2CCCc3ccccc32)n1)c1cccc(Cl)c1	26	-1.5	x	4	8	0.5	-0.3	1.8
O=C(CN1CCSCC1)N/N=C/c1ccc(F)c(F)c1	-5	x	-4	-3	0	0.2	-1.9	-0.9
Cc1cc(C)cc(NC(=O)C(=S)NCc2ccccc2)c1	2	x	1	11	-4	-0.4	5.4	43*
Cc1ccc(C(=O)N2CCN(c3ccc(NC(=O)c4cccnc4)cc3)CC2)cc1	1	3.4	-3	-6	9	-0.1	4.2	-3.3
Cc1c(O)c(CN2CCCC2)cc2c1oc(=O)c1ccccc12	-18	-4.4	4	-1	6	0.4	1.8	-5.9
CC[C@H](C)[C@@H](C(=O)N1CCNCC1)n1cc([C@@H](N)CO)nn1	-14	0.6	0	18	-7	2.5	-0.5	-2.7
Cc1cc(O)c2c(-c3ccccc3)cc(=O)oc2c1	x	3.2	-2	x	12	-0.1	x	4.3
CN(N)C(=S)Nc1ccc(Cl)cc1	-21	0.5	-5	u	-2	0.7	-1.5	-0.7
Nc1ccc(C(=O)N2CCN(S(=O)(=O)c3ccc(Cl)cc3)CC2)cc1[N+](=O)[O-]	-8	1.6	2	4	2	0.3	-0.7	-1.2
CCCc1cc2c(cc1NS(=O)(=O)c1ccc(CCNC(C)=O)cc1)OCO2	-4	0.9	8	-9	2	0.2	0.1	-0.9
Cc1nc2ccccc2c2oc(C(=O)NCCCN3CC(C)CC(C)C3)cc12 (stereo not given)	17	0.0	10	-4	5	-0.4	4.1	-5.3
COc1ccc(/C=N/Nc2nnc(Cc3ccccc3)c(=O)[nH]2)cc1	-13	x	-7	-8	-2	0.1	8.2	-1.6
CC1CCCCN1C(=O)CSc1nc2ccsc2c(=O)n1Cc1ccccn1 (stereo not given)	23	0.3	-10	14	5	-0.9	1.8	-0.8
O=C(Nc1ccc(Br)c2cccnc12)c1ccc(Cn2cc([N+](=O)[O-])cn2)o1	0	3.6	1	1	-15	-0.6	-1.4	-2.6
Nc1nn(-c2ccccc2)c(N)c1N=Nc1ccccc1F	-14	8.8	4	-1	3	-2.4	2.8	4.0
CC(=O)C1=C(O)C(=O)N(Cc2cccnc2)C1c1ccc(O)cc1 (stereo not given)	-3	5.2	-10	u	-17	0.4	-27	8.2
Cc1cc(NC(=O)CSc2nc(N)c(NC(=O)c3ccccc3F)c(=O)[nH]2)no1	-4	1.3	1	6	-2	-1.0	-6.0	1.8
Cc1ccc(C)c(N2CCN(C(=O)c3ccc(CSc4nc5ccncc5[nH]4)cc3)CC2)c1	53	2.0	-8	16	10	0.2	-1.3	-0.9

Some of the entries so far, in CSV form:
Molecule,T cruzi inh,UCH37 DUB inh,Beta2AR agonist,Calb FLC,Beta apoptosis,Bfl-1 A1 inh,RanGTP-Impb inh,LANA-H2A inh
Cn1cc(CCC(=O)NC2CC2)c2ccccc21,1,-0.6,0,1,-9,0.3,-4.7,-4.8
COc1cc2ccccc2cc1C(=O)Nc1ccc(CN2CCOCC2)cc1,0,-0.7,-7,8,0,1.6,0.3,-0.8
Cc1nc(SCC(=O)NC(=O)NCCC(C)C)c2c(-c3cccs3)csc2n1,28,0.7,-4,-5,6,-0.5,2.0,2.3
O=C(/C=C\c1ccc2c(c1)OCO2)Nc1c2c(nn1-c1ccc(Cl)cc1)CSC2,16,-3.8,0,13,x,0.4,-2.8,0.5
COc1ccc([N+](=O)[O-])cc1N(CC(O)CN1CCCC1)S(=O)(=O)c1ccc(C)cc1 (stereo not given),-1,5.8,-1,-26,-6,0.5,-1.1,-6.3

The results go on:
SMILES	T cruzi inh	UCH37 DUB inh	Beta2AR agonist	Calb FLC	Beta apoptosis	Bfl-1 A1 inh	RanGTP-Impb inh	LANA-H2A inh
CCCCc1c(O)nc(SC2CC(=O)N(c3ccc(C(=O)OCC)cc3)C2=O)[nH]c1=O (stereo not given)	7	5.2	2	5	-7	0.1	-0.8	1.0
C/C(Nc1ccc(C)cc1)=C(/C#N)C(N)=O	6	6.0	-5	-18	-8	0.1	u	1.1
COc1cccc(OCC(=O)NNC(=O)CCc2ccccc2)c1	-13	0.4	-3	-16	-4	-0.8	1.5	0.8
COc1ccc(/C=C/C=C2\N=C(SC)SC2=O)cc1	-23	5.7	2	2	-5	1.3	-15	-1.5
O=C(CSc1ccc(Cl)cc1)Nc1ccccc1N1CCN(C(=O)c2ccccc2)CC1	26	-2.6	43*	2	-7	-0.3	0.6	1.6
CC1CCC(NS(=O)(=O)c2ccc(N3CCCC3=O)cc2)CC1 (stereo not given)	-18	4.4	-10	7	9	-0.1	2.9	-5.6
Cc1cc(C)c(C(=O)CC2(O)C(=O)Nc3ccccc32)cc1C (stereo not given)	-4	-5.5	0	24	-8	-0.3	6.3	-0.6
COc1ccc(CCN(C)C(=O)c2ccc3c(=O)n4c(nc3c2)CCCCC4)cc1OC	x	3.5	2	x	4	-0.3	x	7.5
O=C(CN1CCC(NC(=O)c2ccc(F)cc2)CC1)NCc1ccccc1F	-9	1.4	-3	-15	x	0.6	u	-3.2
Cc1ccc(-n2c(SCC(N)=O)nnc2-c2ccc(S(=O)(=O)N3CCCCC3)cc2)c(C)c1	8	3.2	13	41	-3	-0.2	-3.2	-1.9
O=C(Cc1ccsc1)N1CCN(S(=O)(=O)c2ccccc2F)CC1	x	0.3	5	x	3	1.9	x	5.1
Cc1ccc2nc(SCC(=O)Nc3cc(C)on3)nc(=O)n2c1	-8	-9.5	-2	2	x	-0.4	-0.3	-2.5
Nc1ccc(C(=O)N/N=C\c2ccc(OC(=O)c3ccccc3Cl)cc2)cc1	2	x	1	79*	2	0.8	-1.6	-0.1
Cc1cc(CN(C)C(=O)CC2C(=O)NCCN2Cc2ccc(F)c(F)c2)on1 (stereo not given)	-8	3.3	1	-3	0	0.4	-1.3	1.2
C=CCNC(=S)NNC(=O)CC12CC3CC(CC(C3)C1)C2	-16	2.6	5	-31	1	1.2	0.1	3.1
